Source: PubChem (several laboratories)
HIV Env fusion = inhibitors of HIV-1 Env-driven cell-cell fusion, primary screen, HeLa-JRFL effector, CEM21 target cells, luciferase | inhibition, % at 12.3 µM | 360,000 tested, 1.1% active;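 active means mean replicate inhibition score of at least 50 and every replicate individually at or above 50; inconclusive means only one of the two criteria met; inactive means mean below 50 and not all replicates reaching 50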;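 further: 0% = plate neutral controls and 100% = maraviroc near 300 nM; one replicate is shown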
CSC inhib = cancer stem cell viability inhibitors, primary screen, luminescence | cancer stem cell-like cells viability | inhibition, % at 7.5 µM | 300,000 tested, 1.1% active | AID 2717, 2010;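 active means mean at 75% or more and at least half the replicates too; inconclusive means mean and replicates disagree; tested in HMLE shEcad cells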;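 further: 0% = median of negative and 100% = median of positive control wells; the first replicate is given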
PABP polyA inh = PABP poly(A) RNA binding inhibitors, primary screen, biochemical, fluorescence polarization, uHTS; Polyadenylate-binding protein 1 (Homo sapiens), P11940; inhibition, % at 35 µM; 290,000 tested, 1% active; AID 2014, 2009;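 active means 50% or more with normal probe brightness, or confirmed in later tests; inconclusive means above 50% with abnormal brightness, or retests that disagree; inactive means below 50% or failed in later tests; about a fifth of its hits are not listed in these tables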;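 further: calls also rest on retests at 20 µM and on dose response follow-up; controls were probe without protein and protein plus probe with vehicle; some compounds called inactive have numbers as strong as hits; many hits fall short of the cut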
Target sequence (P11940 whole entry, looked up): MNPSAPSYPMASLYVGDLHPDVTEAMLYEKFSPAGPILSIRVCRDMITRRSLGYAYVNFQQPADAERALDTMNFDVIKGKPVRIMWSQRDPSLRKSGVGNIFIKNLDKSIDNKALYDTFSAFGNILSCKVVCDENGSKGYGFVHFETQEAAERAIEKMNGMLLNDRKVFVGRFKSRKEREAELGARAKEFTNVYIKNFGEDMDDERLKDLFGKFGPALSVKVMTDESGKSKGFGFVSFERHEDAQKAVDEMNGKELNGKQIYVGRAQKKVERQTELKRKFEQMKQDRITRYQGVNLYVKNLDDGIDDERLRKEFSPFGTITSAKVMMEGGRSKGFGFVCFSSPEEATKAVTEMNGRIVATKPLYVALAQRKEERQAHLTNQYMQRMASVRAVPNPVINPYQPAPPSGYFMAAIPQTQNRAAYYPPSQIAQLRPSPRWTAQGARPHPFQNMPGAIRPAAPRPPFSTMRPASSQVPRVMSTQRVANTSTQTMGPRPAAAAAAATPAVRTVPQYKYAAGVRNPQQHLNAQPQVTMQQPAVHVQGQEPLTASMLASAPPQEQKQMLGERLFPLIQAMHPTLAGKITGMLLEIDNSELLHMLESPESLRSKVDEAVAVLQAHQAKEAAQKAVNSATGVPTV
UUG fidelity = modulators of yeast start codon fidelity, primary screen, whole organism, S. cerevisiae, single point, plate reader | S. cerevisiae UUG-firefly luciferase reporter, luminescence/redox ratio | activity score, % at 18.7 µM | 350,000 tested, 0.13% active;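 active means replicate mean at a twofold rise or more, about +100% in these data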;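 further: firefly luciferase made from a UUG start codon reports start codon fidelity; reporter light over untreated wells divided by growth signal over untreated wells; some hits fall short of that in this replicate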
Rce1 inhib = yeast Rce1p protease inhibitors, primary screen, biochemical, fluorescence, cell-free homogeneous | yeast membranes, quenched prenylated peptide cleavage fluorescence | calls only | 290,000 tested, 0.27% active | AID 2563, 2010;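 active means fall in fluorescence gain of 50% or more versus controls, with final raw signal at or below 3038400; inconclusive means same 50% fall but final raw signal above 3038400; inactive means fall in fluorescence gain under 50%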;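 further: plate controls were neutral control wells for no effect and wells lacking membranes for full effect; tested at 10 µM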
eIF4H FP inh = human eIF4H binding inhibitors, primary screen, translation initiation inhibitor project, biochemical, uHTS, fluorescence polarization; eIF4H fluorescence polarization binding assay; inhibition, % at 35 µM; 290,000 tested, 0.94% active; AID 2012, 2009;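 active means 50% or more with normal probe brightness, or confirmed in later tests; inconclusive means above 50% with abnormal brightness, or retests that disagree; inactive means below 50% or failed in later tests; about a fifth of its hits are not listed in these tables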;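 further: calls also rest on retests at 20 µM and on dose response follow-up; 0% = protein and probe with vehicle and 100% = probe without protein; strong numbers were not always called active; many hits fall short of the cut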
MT1-MMP act inh = blockers of MT1-MMP proenzyme processing, primary screen, HT1080 RFP-PRO-GFP cells, GFP/RFP fluorescence; 360,000 tested, 0.061% active; Matrix metalloproteinase-14 (Homo sapiens), P50281; AID 651647, 2012; GFP/RFP ratio fluorescence, overnight; percent of plate control window, DMSO zero; GFP/RFP ratio change, % at 20 µM;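 active means GFP/RFP ratio change of at least 30% with cell ATP level not reduced by more than half and red fluorescence within 50% of control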; further: strong numbers were not always called active
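Assay system: HT1080 RFP-PRO-GFP cells. Benchmarks: DMSO vehicle wells and RFP-L50D-GFP reporter cell wells. Times: overnight cell settling, then overnight compound exposure, 37 °C, 5% CO2. Compound: 20 µM single dose, 1% DMSO. Read-out basis: GFP/RFP fluorescence ratio.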
eIF4H FP inh retest = further read-out of eIF4H FP inh, marked with its call; inhibition, %; compound at 20 µM; confirmation average;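 mean of two retest wells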
PABP polyA inh retest = recorded beside PABP polyA inh, whose call it bears; inhibition, %; compound at 20 µM; confirmation repeats;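 mean of two retest wells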
MT1-MMP act inh RFP = recorded beside MT1-MMP act inh, whose call it bears; RFP signal change, %; measured here: RFP expression control read;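 0 = vehicle wells; hits needed this value within 50% of zero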
* = called active by the depositor; i = inactive; ? = inconclusive; . = not tested or not shown; & = joins results of further samples.

SMILES | HIV Env fusion | CSC inhib | PABP polyA inh | UUG fidelity | Rce1 inhib | eIF4H FP inh | MT1-MMP act inh | MT1-MMP act inh RFP | others
CC(C)c1ccc(CN2CCN(C(=O)CCl)CC2)cc1 | 2 | . | 5 | . | . | -5 | -2 | -6
COc1ccc2oc(C(=O)OCC(=O)NC3CC3)c(C)c2c1 | . | 5 | 8 | 1 | i | -2 | 2 | -1
C1CCC(n2nnnc2CN2CCCC2)CC1 | -29 | -8 | -2 | -2 | i | 1 | 2 | 1
COCC(=O)N(C)C[C@H]1Oc2cc(Br)ccc2S(=O)(=O)N([C@H](C)CO)C[C@H]1C | -38 | . | . | -3&10 | . | . | 5 | 5
CCOc1ccc(CC(=O)Nc2ccc(NC(=O)c3ccco3)cc2)cc1OCC | 10 | . | -3 | -18 | i | -4 | 6 | -1
C=CCNCC(=O)Nc1sc2c(c1C(=O)Nc1ccc(OC)cc1OC)CCC2 | 8 | -2 | -7 | . | i | 10 | 0 | -2
Cc1nnc(SCc2ccccc2)nc1-c1ccccc1 | -46 | 1 | . | -2 | i | . | 2 | -1
Cc1oc(/N=C/c2ccc(Cl)cc2Cl)c(C#N)c1C | -4 | . | 35 | -1 | i | 18 | 60 | 76
COC(=O)Nc1nnc(/C=C/c2ccc(OC)cc2)s1 | -37 | -16 | -2 | . | i | 4 | 3 | 0
COc1ccccc1CN1CCN(Cc2nc(Cc3ccccc3)no2)CC1 | 22 | -5 | 5 | . | i | 4 | 2 | 2
CCN(CC)S(=O)(=O)c1ccc(N(C)Cc2cccnc2)nc1 | . | 0 | 1 | -10 | i | -11 | 3 | -3
Cc1ccc(-c2nn3cnnc3c3ccccc23)cc1C | 15 | -10 | -15 | . | i | 2 | -1 | -5
Cc1nc2cc(NC(=O)Nc3cccc([N+](=O)[O-])c3)ccc2n1C | -197 | 4 | 10 | -32 | i | 1 | 5 | -1
CC1(C(=O)NCCCNc2ncc(C(F)(F)F)cc2Cl)C=CCN1C(=O)c1ccccc1 (configuration not stated) | 11 | -6 | 4 | -3 | i | -4 | 1 | 0
CC1CCCCC12NC(=O)N(CC(=O)N1CCN(C(=O)c3ccco3)CC1)C2=O (configuration not stated) | -23 | -5 | . | . | . | . | -4 | 3
Cc1ccc(Nc2ncccc2C(=O)NCc2cccs2)c(C)c1 | -2 | 6 | 6 | -17 | i | 7 | -20 | -6
COC(=O)CSC1=C(C#N)C(c2cccc(F)c2)CC(=O)N1 (configuration not stated) | . | -14 | -6 | 3 | i | 11 | 3 | -4
COc1ccc(NC(=O)CN(C)S(=O)(=O)c2ccc(C)cc2)c([N+](=O)[O-])c1 | -16 | -13 | 1 | . | i | 30 | 0 | 6
COc1ccc(CN2CCN(C(=O)c3ccc4c(c3)CCC4)CC2)cc1OC | 3 | -28 | . | -9 | . | . | 6 | -2
O=Cc1c(N2CCN(CCO)CC2)nc2ccccn2c1=O | -21 | -10 | ? | -21 | i | ? | -4 | 1
Cc1cc(OCCn2ccnc2)cc(C)c1Cl | -5 | -7 | -5 | -4 | i | -4 | -2 | 0
COc1cc(OC)cc(-c2c(-c3cccs3)c3cc(-c4ccc5c(c4)OCCO5)ccc3n2C)c1 | -5 | 16 | . | -14 | . | . | -2 | 2
Cc1ccc(C(=O)NN2C(=O)c3ccc(S(=O)(=O)c4ccc(C(=O)O)cc4)cc3C2=O)cc1 | -10 | -4 | 31 | -4 | i | -2 | 1 | -1
Cc1nnsc1C(=O)NNc1ccc(C(C)(C)C)cc1 | 7 | 14 | -6 | -7 | i | -6 | -2 | 3
Cc1cc(C)c(C#N)c(SCC(=O)C(C)(C)C)n1 | 28 | . | -5 | -7 | i | -7 | -4 | -2

Six entries picked at random from those above, as already listed:
SMILES | HIV Env fusion | CSC inhib | PABP polyA inh | UUG fidelity | Rce1 inhib | eIF4H FP inh | MT1-MMP act inh | MT1-MMP act inh RFP | others
CCOc1ccc(CC(=O)Nc2ccc(NC(=O)c3ccco3)cc2)cc1OCC | 10 | . | -3 | -18 | i | -4 | 6 | -1
COc1ccc(CN2CCN(C(=O)c3ccc4c(c3)CCC4)CC2)cc1OC | 3 | -28 | . | -9 | . | . | 6 | -2
C1CCC(n2nnnc2CN2CCCC2)CC1 | -29 | -8 | -2 | -2 | i | 1 | 2 | 1
COc1ccccc1CN1CCN(Cc2nc(Cc3ccccc3)no2)CC1 | 22 | -5 | 5 | . | i | 4 | 2 | 2
Cc1nc2cc(NC(=O)Nc3cccc([N+](=O)[O-])c3)ccc2n1C | -197 | 4 | 10 | -32 | i | 1 | 5 | -1
Cc1cc(OCCn2ccnc2)cc(C)c1Cl | -5 | -7 | -5 | -4 | i | -4 | -2 | 0

(list continues)
SMILES | HIV Env fusion | CSC inhib | PABP polyA inh | UUG fidelity | Rce1 inhib | eIF4H FP inh | MT1-MMP act inh | MT1-MMP act inh RFP | others
Cc1ccc(NC(=O)CSCC(=O)Nc2sccc2C#N)cc1 | -1 | -9 | . | . | i | . | -8 | -2
Cc1c(C)n(C(=O)CN2CCC(C)CC2)c2ccccc12 | . | 1 | -9 | -15 | i | -3 | -2 | 7
COc1cc(C(=O)Nc2ccc(C(=O)c3cccs3)cc2)cc(OC)c1OC | 11 | 18 | 6 | 0 | i | -8 | 8 | -4
COc1ccc(-c2csc(Nc3ccc(Oc4ccccc4)cc3)n2)cc1 | 77* | . | . | -6 | . | . | -5 | -32
CCCOC(=O)C1[C@H]2C(=O)N(Cc3ccco3)C[C@]23C=C[C@H]1O3 (some centres not stated) | 12 | -7 | 1 | 0 | i | 5 | 3 | 3
COc1cccc(NC2=CC(=O)CC(C)(C)C2)c1 | . | -20 | 1 | -16 | i | -3 | 10 | 6
COc1ccccc1/C=C1\SC(=S)N(CCC(=O)NNC(=O)c2ccccc2O)C1=O | . | -23 | 8 | -22 | i | 14 | 8 | 1
O=C(Nc1cccc(S(=O)(=O)NC2=NCCC2)c1)c1cn(-c2ccccc2)nc1-c1ccc(F)cc1 | . | 32 | . | -8 | . | . | -7 | -6
COCCSc1ccccc1C(=O)N1CCN(c2ccccc2OC)CC1 | 18 | -9 | 4 | . | i | -10 | 3 | 3
COc1ccc(NC(=O)COC(=O)/C=C/c2cccs2)c(OC)c1 | 4 | . | . | 2 | . | . | 3 | -3
COc1cccc(NC(=O)CN2CCC(C)CC2)c1 | -3 | -3 | 1 | -15 | i | -10 | -2 | -6
COc1cc(OC)cc(C(=O)Nc2ccc(-c3nc4ccccc4o3)c(O)c2)c1 | . | 48 | -10 | 0 | i | 2 | 3 | -1
CC(C)(C)C(=O)Nc1ccc(-c2cnco2)cc1 | 0 | -9 | -6 | . | i | -4 | 1 | 0
COc1cc(NC(=O)C2CCCN2S(=O)(=O)c2cccc3cccnc23)cc(OC)c1OC (configuration not stated) | -17 | 0 | -15 | -19 | i | -2 | -4 | 1
O=c1cc(Cl)nc2ccccn12 | -8 | . | . | -5 | . | . | -4 | 0
Cc1ccc(C(=O)NCCNS(C)(=O)=O)cc1 | 6 | -6 | -2 | -29 | i | 3 | 1 | 6
Cc1c(Br)c([N+](=O)[O-])nn1CC(=O)NCc1cccs1 | . | -10 | 1 | -10 | i | -2 | 8 | 4
Cc1cc(CCN2CCC(=O)NC2=O)ccc1OC(C)C | . | -12 | 22 | -5 | i | -2 | -3 | 1
Cc1cccc(-c2nnc(SCC#N)n2Cc2ccccc2)c1 | -15 | -2 | -3 | -1 | i | -10 | 7 | 4
CN(C)c1ccc(C(=O)Nc2nnc(-c3ccc(Cl)cc3)o2)cc1 | 12 | 36 | -1 | -3 | i | 49 | 10 | 3
C#CCOCCOCCOCCNc1nc(N2CCN(C(=O)CCCCCCCCCCNC(=O)[C@H]([C@@H](C)CC)n3cc(CCCCN=C(N)N)nn3)CC2)nc(N2CCN(C(=O)CCCCCCCCCCNC(=O)[C@H](CO)n3cc(CCCCCN)nn3)CC2)n1 | . | 18 | . | -6 | . | . | 12 | 7
CCOc1ncccc1C(=O)OCC(=O)c1cc(OC)ccc1OC | 9 | -9 | -1 | 29 | i | 3 | -1 | -4
O=C(NCCO)c1c(-c2ccc3c(c2)OCO3)noc1-c1ccsc1 | -6 | . | . | 0 | . | . | 4 | 8
Fc1ccc(CSc2nc3ccccc3[nH]2)c2ccccc12 | . | ? | -1 | . | i | -8 | . | .
OC(c1ccccc1)c1nc(-c2cnc3ccccc3c2)cs1 (configuration not stated) | -194 | . | . | -29 | . | . | 3 | -2
Next section.
SMILES | HIV Env fusion | CSC inhib | PABP polyA inh | UUG fidelity | Rce1 inhib | eIF4H FP inh | MT1-MMP act inh | MT1-MMP act inh RFP | others
Cc1cc(=S)nc(-c2ccccn2)[nH]1 | -20 | -6 | 4 | . | i | 15 | 6 | 2
O=C(NCc1ccccc1)OCCN1CCN(Cc2ccccc2)CCC1=O | 29 | -20 | 3 | -12 | i | -8 | 0 | 2
N#Cc1ccc(/C=N/NC(=O)c2cc(-c3cccs3)nc3ccccc23)cc1 | . | 56 | -1 | -26 | i | 2 | -11 | -6
COc1cc(/C=N/Nc2nc3ccccc3[nH]2)cc(Br)c1OCC(=O)N(C)C | 15 | 2 | 10 | -2 | i | 10 | 4 | -4
CCOc1ccc(CNC(=O)CCSCc2ccccc2F)cc1OC | -4 | -13 | 3 | . | i | 9 | -4 | 3
CCOc1ccccc1NC1c2ccccc2C(=O)N1Cc1ccco1 (configuration not stated) | . | . | -2 | 5 | i | -2 | 3 | -1
CCCCn1ccnc1C(=O)c1cccc(S(=O)(=O)N2c3ccccc3CC2C)c1 (configuration not stated) | . | -3 | 12 | -16 | i | -2 | -7 | -13
Nc1ccc2oc(-c3ccccc3Cl)cc(=O)c2c1O | -38 | 11 | 5.5* | -24 | i | 90* | 9 | -4 | eIF4H FP inh retest=107*;PABP polyA inh retest=84*
Cc1onc(-c2c(Cl)cccc2Cl)c1-c1nc2cc(Cl)ccc2c(=O)o1 | 4 | . | 12 | -13 | . | -5 | 0 | -1
Cc1nn(-c2ccccc2)c(C)c1NC(=O)COC(=O)c1ccc(Cl)c(S(N)(=O)=O)c1 | 3 | -17 | . | -2 | i | . | 5 | 3
CCOC(=O)c1sc(C)c2c1NC(c1ccc(N(C)C)cc1)NC2=O (configuration not stated) | . | -6 | -10 | 14 | i | -13 | 0 | 1
O=C(Cn1cc([N+](=O)[O-])nc1[N+](=O)[O-])N1CCN(c2ccccc2)CC1 | 1 | . | -4 | . | i | -10 | 1 | -3
CCC(C)(C)C1CCc2[nH]nc(C(=O)NC3CCCCC3)c2C1 (configuration not stated) | -5 | . | . | -6 | . | . | 1 | -5
COc1ccc(NC(=O)c2ccc3c(c2)OCO3)cc1S(=O)(=O)N1CCOCC1 | 1 | -9 | . | -3 | . | . | 7 | 2
COc1cc2nc(CN3CCN(S(=O)(=O)c4ccccc4C(F)(F)F)CC3)[nH]c(=O)c2cc1OC | 2 | 11 | . | . | . | . | -7 | -2
COc1ccc(CNC(=O)COC(=O)CN2C(=O)C(C)Oc3ccc(C)cc32)cc1 (configuration not stated) | 2 | 6 | 16 | -2 | i | 2 | 0 | 3
